# Compound activity: PubChem, National Center for Advancing Translational Sciences (NCATS)
# PINK1 expr mod – PINK1 expression modulation; PINK1 immunofluorescence, high-content cytometry, 24 h; actives 0.2% (n = 410,000); Potency, µM (series often up to 76.6 µM), inactives show at the top dose activation (PINK1 increase), usual class: activators; active = well fitted activation curve with a large enough effect; inconclusive = small, poorly fitted or top-dose-only effect; inactive = flat fitted curve, though single readings scatter; cell line not stated here;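 further: potency means the concentration at half of the fitted maximal effect; % of control where 0% means no effect; nearly all actives have a fitted effect of over 65% in size; a mitochondrial uncoupler was the plate control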
#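 Stable cell line treated 24 h with compounds at 5 concentrations (CCCP controls), then fixed and immunostained for PINK1 plus nuclear and cell stains; PINK1 immunofluorescence quantified by laser-scanning microplate cytometry.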
# CtBP-E1A inh – inhibitors of CtBP/E1A interaction | AlphaScreen GST-E1A/His-CtBP binding, 1536-well; active compounds read low; control for the full effect not named in the record | activity change, % (concentration not given with the values) | actives 0.49% (n = 340,000) | AID 651724; in the data active means activity change below about -65%; inconclusive means about -30% to -65%; inactive means above about -30%; further: on the % scale 0 is the no-effect control and ±100 the full control effect
#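 GST-E1A and His-tagged CtBP (125 nM each as 5X stock) were preincubated with pin-transferred compound for 2 h at 37 °C in the dark, then glutathione donor and nickel acceptor beads were added for 1 h before AlphaScreen reading.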
# Six1-Eya2 inh – blocks human Six1 binding to Eya2; Q15475+O00167; AlphaScreen GST-Six1/His-Eya2 binding, biochemical; active compounds read low; control for the full effect not named in the record; activity change, % (test concentration not listed); actives 0.56% (n = 360,000); in the data active = activity change below about -65%; inconclusive = about -30% to -65%; inactive = above about -30%; further: on the % scale 0 is the no-effect control and ±100 the full control effect
# Target sequence (O00167 whole entry, looked up): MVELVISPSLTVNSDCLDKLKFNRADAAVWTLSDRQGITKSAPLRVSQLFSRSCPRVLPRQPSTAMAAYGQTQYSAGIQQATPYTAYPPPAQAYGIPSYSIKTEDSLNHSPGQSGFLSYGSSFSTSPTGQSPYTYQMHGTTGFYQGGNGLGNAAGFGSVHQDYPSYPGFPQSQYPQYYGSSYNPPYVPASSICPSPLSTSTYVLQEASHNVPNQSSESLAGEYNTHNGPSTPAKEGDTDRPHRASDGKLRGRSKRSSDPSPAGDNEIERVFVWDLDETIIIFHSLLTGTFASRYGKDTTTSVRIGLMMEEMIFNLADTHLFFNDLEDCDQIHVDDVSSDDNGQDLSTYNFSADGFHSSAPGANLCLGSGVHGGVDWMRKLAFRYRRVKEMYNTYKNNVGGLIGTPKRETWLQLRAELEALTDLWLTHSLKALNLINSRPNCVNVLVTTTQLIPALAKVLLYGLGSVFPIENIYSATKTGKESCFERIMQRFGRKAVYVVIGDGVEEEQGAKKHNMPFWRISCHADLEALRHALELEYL
# Target sequence (Q15475 whole entry, looked up): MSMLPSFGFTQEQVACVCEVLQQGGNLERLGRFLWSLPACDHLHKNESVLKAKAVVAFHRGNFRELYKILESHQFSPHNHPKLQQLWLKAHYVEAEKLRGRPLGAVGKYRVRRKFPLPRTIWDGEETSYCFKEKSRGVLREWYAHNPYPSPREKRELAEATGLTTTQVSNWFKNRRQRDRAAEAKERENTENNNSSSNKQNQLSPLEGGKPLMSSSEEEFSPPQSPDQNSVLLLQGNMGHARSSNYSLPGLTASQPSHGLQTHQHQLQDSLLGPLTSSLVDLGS
#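 AlphaScreen luminescence read after one hour at 37 °C in darkness. Pin-transferred compounds met GST-Six1 and His-Eya2 protein (5X stock 250 nM/500 nM) plus glutathione donor and Ni-chelate acceptor beads (5X, 50 ug/mL).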
# TRPML1 inh – inhibitors of human TRPML1 channel; Q9GZU1; TRPML1-inducible cells, Ca2+ dye fluorescence, FDSS; active compounds read low; inhibition of EC80 agonist-evoked calcium signal; activity change, negative = inhibition, % (concentration not given with the values); actives 0.02% (n = 390,000); AID 624415; in the data active means activity change below about -50%; inconclusive means about -30% to -50%; inactive means above about -30%;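 further: stimulus is agonist 54-4 at its EC80 concentration; on the % scale 0 is the no-effect control and ±100 the full control effect; the text of the record puts the active cut at -80%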
#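 Calcium fluorescence in TRPML1-DL cells induced overnight with Tet: a 110 s read after compound pin addition, then a 110 s antagonist read after challenge with 54-4 at 4 uM final (EC80).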
# D2 agonist – activates the human D2 dopamine receptor | P14416 | DiscoveRx PathHunter D2 beta-arrestin, luminescence, 90 min; 100% = 57 uM dopamine signal | activation, % (no concentration beside the values) | actives 0.084% (n = 360,000); in the data active = activation above about 40%; inconclusive = about 15% to 40%; inactive = below about 15%; further: compound concentration not given in the record; the text of the record calls up to 30% inactive
#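 Agonist mode: compounds alone added to overnight-plated D2 PathHunter cells for 90 min at 37 C, with 57 uM final dopamine (EC100) defining full response. Beta-arrestin recruitment detected by chemiluminescent reagent, read after 1 h at ambient temperature.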
# TRPML1 agonist – agonists of human TRPML1 channel. Q9GZU1. TRPML1-expressing cells, Ca2+ dye fluorescence, FDSS; host cell line not named in the record; reference of the full effect not given here. activation, % (test concentration not listed). actives 0.12% (n = 410,000); in the data active = activation above about 50%; inconclusive = about 30% to 50%; inactive = below about 30%; further: 0% is about no effect; the text of the record puts the active cut at 80%
#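 TRPML1-DL cells, Tet-induced overnight (~16 h, 37 degrees C), loaded 45-90 min at room temperature with Ca8 no-wash calcium dye plus quencher. FDSS fluorescence: 10 s baseline, compound pin-transfer, 110 s agonist read, then EC80 54-4 (4uM final) and 110 s antagonist read.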
# Starred values were filed as active, the others as inactive; ? = inconclusive; . = not tested or not shown; & = joins results of further samples; [ ] = remark or other dose.
mol	TRPML1 inh	CtBP-E1A inh	TRPML1 agonist	Six1-Eya2 inh	D2 agonist	PINK1 expr mod
COc1cccc(C2=NOC(C(=O)Nc3cc(C)nn3-c3ccccc3)C2)c1OC (configuration not stated)	3	-4	-0.3	5	2.4	6.0%
CN1CCCN(C(=O)c2ccc(Br)cc2)CC1	4	5	-0.4	4	2.4	0.4%
C=CCn1c(SCc2ccccc2)nc(O)cc1=O	-13	7	-0.3	0	-2.5	-1.9%
Cc1cc(C(=O)N2CCCC(C(=O)c3ccc(Oc4ccccc4)cc3)C2)n[nH]1 (configuration not stated)	-5	-5	0.1	-5	4.6	0.1%
CN1CCN(CCCNC(=O)c2ccc(CS(=O)(=O)c3ccc(Br)cc3)o2)CC1	2	5	0.0	7	-4.5	-0.2%
Cc1ccc2c(c1)C(O)(CC(=O)c1cccc(-n3cccc3)c1)C(=O)N2 (configuration not stated)	18	-14	0.3	-13	-0.5	1.6%
O=C1CCCN1CCCNc1ccc2nnc(CCC(=O)N3CCN(c4ccccc4)CC3)n2n1	-1	.	-0.4	8	2.8	0.6%
CN1CCCN(C(=O)c2ccc(Cl)c(S(=O)(=O)N(C)c3ccccc3)c2)CC1	-8	3	-0.3	5	1.3	0.7%[38.3 µM]
Cc1cc(C)n2nc(NCc3ccccc3)nc2n1	-10	-1	-0.2	1	-3.2	.
CSc1nc2nccc(-c3ccc(Oc4ccccc4)cc3)n2n1	82	-25	4.5	-14	0.3	3.3%
Cc1ccc(CCNC(=O)c2cc(S(=O)(=O)N3CCCCC3)c[nH]2)cc1	0	3	-0.1	-1	0.7	-0.6%
O=[N+]([O-])c1cnccc1Nc1ccc(Cl)cc1	-11	?	-0.5	3	-9.1	0.1%
CCCOc1ccc(NC(=O)CC2C(=O)N(C)C(=S)N2Cc2cccs2)cc1 (configuration not stated)	1	1	0.8	-7	-5.3	16%
Cc1ccc(NC(=O)CCNS(=O)(=O)c2ccc3[nH]c(=O)oc3c2)cc1	-13	-6	-0.2	-1	-3.9	-1.0%
COCCN(CC(=O)NCc1ccc2c(c1)OCO2)C(=O)CCC(=O)Nc1nccs1	21	4	-0.4	0	-1.2	-1.1%
CCCc1cc(=O)[nH]c(SCC(=O)N2CCN(c3ccc(F)cc3)CC2)n1	-6	-2	-0.3	7	1.4	-0.4%
O=C(O)c1cccc(C(=O)c2cccc(C(=O)O)c2)c1	0	9	-0.8	-2	-1.1	0.4%
O=C1O[C@@H]([C@H](O)CO)C(O)=C1O	-14	-20	0.6	6	-4.4	2.6%
O=C(CCn1c(=S)oc2ccccc21)Nc1ccc(F)cc1	-13	5	1.2	1	-2.5	7.6%
CC(=O)Nc1ccc(S(=O)(=O)/N=C2\C(=O)c3ccccc3C([O-])=C2n2cc[n+](-c3ccccn3)c2)cc1	1	0	-0.2	1	7.3	1.0%
Clc1ccc(-c2nnc(-c3cccc4ccccc34)o2)cc1	7	1	4.0	10	-3.6	3.3%
COC(=O)CCC(=O)Nc1cccc([N+](=O)[O-])c1	-3	.	0.2	5	-2.0	0.4%
Cc1cc(C)c2nc(C)cc(Nc3ccc(C(=O)N4CCOCC4)cc3)c2c1	-11	3	-0.2	1	-4.1	1.8%
COc1ccc(NC(=O)CN2C(=O)COc3ccc(S(=O)(=O)N4CCCCC4)cc32)cc1OC	10&-8	-23	4.0&-1.0	-14	1.0	-1.1%&-0.7%
COc1cc(C2NC(=S)NC(c3ccccc3)=C2C(C)=O)cc(Br)c1OCC(N)=O (configuration not stated)	-4	.	-0.5	4	2.4	-0.5%

# Random excerpt: two compounds from above
mol	TRPML1 inh	CtBP-E1A inh	TRPML1 agonist	Six1-Eya2 inh	D2 agonist	PINK1 expr mod
O=C(O)c1cccc(C(=O)c2cccc(C(=O)O)c2)c1	0	9	-0.8	-2	-1.1	0.4%
C=CCn1c(SCc2ccccc2)nc(O)cc1=O	-13	7	-0.3	0	-2.5	-1.9%

# Following part.
mol	TRPML1 inh	CtBP-E1A inh	TRPML1 agonist	Six1-Eya2 inh	D2 agonist	PINK1 expr mod
COc1ccc(NC(=O)CSc2nnc(N)s2)cc1	-13&0	1	-0.6&-0.5	2	-4.3	-1.9%&-0.8%
COc1ccc(CCNC(=O)Cn2nnc(-c3ccc(C(F)(F)F)cc3)n2)cc1OC	-14	.	0.9	.	.	-2.8%
COc1ccc(N2CCN(CNC(=O)c3ccccc3)CC2)cc1	4	6	-0.3	-4	-5.1	3.5%
COc1ccc(NC(=S)N(CCN2CCOCC2)C2CCN(C(C)=O)CC2)cc1Cl	-9	?	0.1	-6	1.0	4.3%
CN(C(=O)c1ccc2c(c1)OCO2)C1(C(=O)NC2CCCCC2)CCCCC1	2	0	-0.4	0	-1.6	-0.6%
CC1(C)CCC[C@]2(C)[C@H]3CC(=O)O[C@]3(C)CC[C@@H]12	27	-12	-1.6	3	-0.1	10%
O=C(CSc1ccccc1)Nc1ccc(S(=O)(=O)Nc2ncccn2)cc1	18	6	-0.3	9	-0.3	1.5%
COc1ccc(NC(=O)NC23CC4CC(CC(C4)C2)C3)cc1OC	-4	-12	-0.5	-20	-3.1	4.4%
CN1CCN(S(=O)(=O)c2ccc(N(C)Cc3ccc(OC(F)F)cc3)c([N+](=O)[O-])c2)CC1	-9	-18	53*	?	-3.4	0.5%
CC1CN(C(=O)CCC(=O)NCc2ccc(F)cc2)c2ccccc2S1 (configuration not stated)	-7	0	-0.8	4	-2.2	2.4%
CNc1ccccc1C(=O)OCC(=O)N1CCc2ccccc2C1	-4	13	-0.7	17	0.0	0.1%
Cc1nc(SCC(=O)Nc2cc(Cl)ccc2[N+](=O)[O-])nc(C)c1C	15	?	2.2	?	3.7	1.5%
CSc1nc(-c2ccco2)nn1C(=O)c1ccc(C)cc1	3	3	0.2	-1	0.6	2.0%
O=C(Nc1ccccc1)Nc1nc2ccccc2s1	-2	0	-0.8	0	1.6	0.2%
CCCCCCCCN1C(=O)[C@H](CC(=O)NCc2cccs2)C[C@@]2(C(=O)OCC)CCCC=C12	.	1	0.0	1	.	?
CCC(=O)N1Cc2ccccc2-c2ccccc2C1=O	5	-2	0.1	13	-3.6	0.8%
N=c1c2c(n(Cc3ccc([N+](=O)[O-])cc3)c3c1CCC3)CCCC2	-1	22	0.5	-6	3.9	-1.3%
CC(NS(=O)(=O)c1ccc(NC(=O)N2CCCCC2)cc1)c1ccccc1 (configuration not stated)	-1	4	-0.4	0	-4.3	?
OC(c1cccnc1)c1nc(/C=C/c2ccc(C(F)(F)F)cc2)cs1 (configuration not stated)	34	-21	-0.6	2	8.9	1.4%
CCCC(=O)Nc1ccccc1NC(=O)c1ccc(OCC)cc1	-3	.	2.2	1	1.5	0.4%
Cc1nc2ccc(C(=O)N3CCN(c4ccccn4)CC3)cc2s1	-4	0	-0.1	6	0.2	-0.5%
COc1cc(/C=N/NC(=O)Cc2nnc(NC(=O)c3ccccc3)s2)ccc1O	3	-15	-0.7	-16	-0.2	0.8%
CC(C)(C)c1ccc(C(=O)CC(Sc2ccc(Cl)cc2)C(=O)O)cc1 (configuration not stated)	0	1	-0.1	-4	-5.8	-2.1%
COc1cc(/C=C2\SC(=O)N(CCNC(=O)c3sc4cc(F)ccc4c3Cl)C2=O)cc(OC)c1OC	-3	0	-0.1	1	-3.0	4.9%
COc1ccc(/C=C/C(=O)NCCNC(=O)c2ccccc2)cc1OC	-14	-12	-0.9	3	-1.1	0.2%
COc1cccc(CNc2nc3cc(-c4cnn(Cc5ccccc5)c4)sc3c(=O)n2C)c1	-10	-5	0.7	-7	-3.9	1.0%
O=C(NCC1CCCO1)c1ccc(Cl)c(S(=O)(=O)N2CCOCC2)c1 (configuration not stated)	-6	-2	-0.8	-19	-5.5	1.9%
O=C(O)CCC(=O)N1N=C(c2c(-c3ccccc3)c3cc(Cl)ccc3[nH]c2=O)CC1c1ccco1 (configuration not stated)	-3	3	0.8	-12	-2.9	3.1%
CCCn1c(SCc2nc3ccccc3s2)n[nH]c1=O	-21	6	3.9	13	-2.5	-1.3%
Cc1cc(C)cc(C(=O)NC(CC(N)=O)c2ccc(N3CCC(Br)CC3)c([N+](=O)[O-])c2)c1 (configuration not stated)	-7	0	-0.6	18	0.0	-0.1%
Cc1cc2nsnc2c(S(=O)(=O)N2CCN(C)CC2)c1C	59	5	-0.5	-1	-3.8	-2.3%
Cn1nnnc1SCC(=O)N1c2ccccc2Sc2ccc(Cl)cc21	-6	-1	0.9	-5	2.0	1.4%
O=C(CSCC(=O)NCc1ccco1)NCc1ccco1	-15	-2	0.3	5	-2.2	.
Cc1cnc(=O)[nH]c1SCc1cccc(C(F)(F)F)c1	4	.	1.1	15	-1.3	-0.2%
COc1ccc(NC(=O)Cc2nnc(SCC(=O)NC3=NCCS3)n2C)cc1	1	-8	-0.3	1	-0.4	0.9%
CCCCN(C)CCCNC(=O)/C=C1\Sc2ccccc2NC1=O	-10	.	0.7	7	-3.2	0.9%
COc1ccccc1CNC(=O)C1CCN(S(=O)(=O)c2ccc3c(c2)CC(C)N3C(=O)C2CC2)CC1 (configuration not stated)	10	-10	-1.2	-3	-0.7	-1.2%
CC(Sc1nnc2c(n1)C1CCC2(C)C1(C)C)C(=O)Nc1ccccc1 (configuration not stated)	-3	1	0.4	-3	-1.6	1.4%
COc1ccc(C(=O)NC(=S)Nc2ccc(NC(=O)c3ccco3)cc2)cc1[N+](=O)[O-]	-3	6	-0.1	3	-1.6	5.0%
CCN(c1ccccc1)S(=O)(=O)c1ccc(Oc2ccccc2C(C)=O)nc1	1	9	-0.7	-4	2.5	0.7%
CCN(CC)S(=O)(=O)c1ccc(NS(=O)(=O)CC23CCC(CC2=O)C3(C)C)cc1 (configuration not stated)	-9	1	-0.2	9	2.5	0.4%
COc1ccc(S(=O)(=O)Nc2cccc(S(=O)(=O)N3CCCCC3)c2)cc1	6	-1	0.3	-5	2.3	0.9%
Cc1ccc(S(=O)(=O)NC(CC(C)C)C(=O)NCC(C)(C)N2CCOCC2)cc1 (configuration not stated)	0	5	-0.5	6	-5.1	-0.3%
O=C(CNc1cccc(Cl)c1)c1ccc(Br)cc1	.	.	.	4	-9.5	-0.4%
CCc1cccc(C)c1NC(=O)C1CCN(S(=O)(=O)c2cccc3nonc23)CC1	11	.	-0.7	.	.	3.0%
COc1cc(NC(=O)c2ccc3c(Cl)c4c(nc3c2)CCC4)cc(OC)c1OC	19	.	-1.1	.	.	1.5%
O=C(Nc1cccc2c1CCCC2)c1cccc(F)c1	-1	10	0.0	-7	-1.9	3.7%
Clc1ccc2[nH]c3c(NCCCN4CCOCC4)ncnc3c2c1	17	-20	0.2	-14	0.5	0.3%
